KCNQ2 block: KCNQ2 potassium channel inhibitors, primary screen, cell-based, CHO-K1, FluxOR thallium flux, B-score (AID 2156) | O88943 | 20 min; hits give low values; only compounds with negative scores are shown here; some inactives read as strong as hits | B-score at 10 µM | 1.1% of 310,000 active;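 active = fluorescence ratio B-score at most minus 3 library SDs, with starting brightness B-score within 2 library SDs, cut at about -5.5 in these data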
Target sequence (O88943 whole entry, looked up): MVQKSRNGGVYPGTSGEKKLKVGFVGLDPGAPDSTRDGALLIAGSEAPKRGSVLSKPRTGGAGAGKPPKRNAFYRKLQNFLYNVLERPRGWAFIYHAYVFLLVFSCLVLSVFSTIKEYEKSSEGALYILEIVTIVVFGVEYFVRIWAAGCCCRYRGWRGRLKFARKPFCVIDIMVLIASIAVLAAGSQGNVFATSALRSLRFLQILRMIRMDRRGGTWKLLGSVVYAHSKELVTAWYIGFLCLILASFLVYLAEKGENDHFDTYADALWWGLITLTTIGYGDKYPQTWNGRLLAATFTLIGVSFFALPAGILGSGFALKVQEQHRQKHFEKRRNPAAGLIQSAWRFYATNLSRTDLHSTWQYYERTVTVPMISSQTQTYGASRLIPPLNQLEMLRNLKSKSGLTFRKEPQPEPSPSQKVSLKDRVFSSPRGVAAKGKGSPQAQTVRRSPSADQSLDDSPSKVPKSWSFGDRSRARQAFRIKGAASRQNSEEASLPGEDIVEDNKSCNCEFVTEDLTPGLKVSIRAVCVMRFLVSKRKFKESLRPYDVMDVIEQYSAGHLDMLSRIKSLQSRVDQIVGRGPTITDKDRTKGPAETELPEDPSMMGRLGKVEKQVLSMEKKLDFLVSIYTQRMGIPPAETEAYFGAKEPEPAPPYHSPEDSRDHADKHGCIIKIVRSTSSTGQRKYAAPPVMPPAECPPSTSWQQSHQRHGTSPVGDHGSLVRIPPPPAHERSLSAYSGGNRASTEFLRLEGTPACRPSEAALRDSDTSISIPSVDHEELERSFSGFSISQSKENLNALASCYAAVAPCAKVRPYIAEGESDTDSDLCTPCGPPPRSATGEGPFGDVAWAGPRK
KCNQ2 block baseline: further read-out of KCNQ2 block, marked with its call; B-score; measured here: initial fluorescence intensity artifact check;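 brightness before thallium and not channel activity; 0 = typical well and far values either way flag optical interference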
* hit, by the source's call; i = inactive.

Compound	KCNQ2 block	KCNQ2 block baseline
CCCCC(OC(=O)c1cc2occc2n1C)C(=O)NCC1CCCO1 (stereo not drawn)	i	0.16
COc1ccc(NC(=O)CSC2=C(C#N)C(c3ccco3)C(C(=O)Nc3nc4ccccc4s3)=C(C)N2)cc1 (stereo not drawn)	i	-0.45
COc1cc2nc(CSc3ncn[nH]3)[nH]c(=O)c2cc1OC	i	-0.08
Cc1ccc(/C=C/c2ccc(=O)n(Cc3ccc(F)cc3)n2)cc1	i	-1.7
CCCCc1ccc(S(=O)(=O)NCCCN2CCCC2=O)cc1	i	3
CCOC(=O)c1sc(NC(=O)CSC(=S)N2CCN(C)CC2)nc1C	i	-0.07
CC(=O)NCCc1nc2cc(NC(=O)c3ccccc3)ccc2n1C	i	-0.06
CCOC(=O)C1CCN(C(=O)Cn2nc(C)n3nc(-c4ccc(OC)cc4)cc3c2=O)CC1	i	-0.35
O=C(CSc1nnc(-c2ccccc2)o1)N1CCCCC1	i	0.57
CN(CC1CCOCC1)C(=O)CC1C(=O)NCCN1CC1CCCCC1 (stereo not drawn)	i	-0.28
Cc1[nH]n(-c2ccccc2)c(=O)c1N=Nc1ccc(Cl)cc1	i	-0.34
COCCNC(=O)CN(C(=O)CCC(=O)Nc1cc(C)on1)c1cccc(C)c1C	i	-0.03
CCN1C(=O)CSC1=Nc1ccc(Cl)c(Cl)c1	i	1.5
C[N+](C)=C1SCC(C)(/C=N/O)S1 (stereo not drawn)	i	1.4
O=C(NCCNC1CCC(c2ccccc2)CC1)c1cccs1 (stereo not drawn)	i	0.67
O=C(Nc1ccc(Oc2cccnc2)cc1)C1CCCCN1Cc1ccc(CO)o1 (stereo not drawn)	i	-0.01
COc1ccc(/C=C/C(=O)c2ccncc2)c2ccccc12	i	4.2
Cc1ccc(S(=O)(=O)NCCC(=O)NCCSc2ccc(Br)cc2)cc1	i	-0.87
CCOC(=O)C1CCN(CC(=O)Nc2cc(C)nn2-c2nc3ccccc3s2)CC1	i	0.95
Cn1cc(C(=O)N/N=C/c2ccc(Br)c([N+](=O)[O-])c2)c2ccccc21	i	0.15
Cc1ccc(S(=O)(=O)N2CCCCC2CCNC(=O)C(=O)NCc2ccccc2C)cc1 (stereo not drawn)	i	-0.84
CCOC(=O)c1cn2ccc(C)cc2n1	i	1
C=C(C)C1CCC(C)=C1COC(=O)Nc1ccccc1 (stereo not drawn)	-5.9*	0.78*
Cc1ccc(COC(=O)c2cc([N+](=O)[O-])ccc2N2CCOCC2)cc1	i	-0.04
COc1cccc2c1OCC/C2=N\NC(=O)C(C)Oc1ccc([N+](=O)[O-])cc1 (stereo not drawn)	i	2

Compound	KCNQ2 block	KCNQ2 block baseline
Cc1cc(NC(=O)CSc2nnc(C3COc4ccccc4O3)n2N)no1 (stereo not drawn)	i	-1.2
CC(=O)N1CC(=O)N(c2ccccc2)C1=O	i	1.2
O=C(Nc1cccc2ccccc12)c1cnccn1	i	0.03
CC12CN3CCN(CC(C3)C1(O)CN1CCCCC1)C2 (stereo not drawn)	i	1
CCOC(=O)N1CCN(S(=O)(=O)c2ccc(C(=O)Nc3nnc(C4CC4)o3)cc2)CC1	i	0.13
CCOc1ccc(NC(=O)CCN2CCCCC2)cc1	i	0.09
COc1ccc(C2/C=C\CN(CC(C)C)CC(=O)N2Cc2ccc(F)cc2)cc1 (stereo not drawn)	i	-0.2
CN1C(=O)C(=O)/C(=C(/O)c2ccc(Br)cc2)C1c1ccc(Cl)cc1 (stereo not drawn)	i	2.5
Cc1nnc(NC(=O)c2ccc(Br)o2)s1	i	-0.5
Cc1c(O)nc2sc3ccccc3n2c1=O	i	0.44
CN(C)S(=O)(=O)c1ccc2nc(NC(=O)c3cccs3)sc2c1	i	0.49
CSc1ccc(OC2CCCCC2NS(=O)(=O)c2ccccc2)cc1 (stereo not drawn)	i	0.53
COc1ccc2nc(NC(=O)c3cccc(S(=O)(=O)N4CCOCC4)c3)sc2c1	i	3.1
COc1cccc(NC(=O)c2ccc(Cn3cc([N+](=O)[O-])cn3)o2)c1	i	-1.1
CCc1ccc(CN(C)C(=O)C2CCC(=O)N(Cc3ccccn3)C2)cc1 (stereo not drawn)	i	-1.4
C/C(Cl)=C\Cn1c(O)c(N=O)c2ccccc21	i	3.5
CCOC(=O)Nc1ccc2c(COC(=O)c3ccccc3O)cc(=O)oc2c1	i	-0.02
Fc1ccc(-c2nc3ccccn3c2NCc2ccc3c(c2)OCO3)cc1	i	0.27
O=C(NCc1ccco1)C(=O)NCC1OCCCN1S(=O)(=O)c1ccccc1 (stereo not drawn)	i	1.9
CS(=O)(=O)c1ccccc1-c1nnc(NC(=O)c2ccco2)o1	i	2.5
Cc1ccc(S(=O)(=O)N(CCC#N)C2CCCCC2)c2nsnc12	i	-0.37
COc1ccccc1C1CCN(c2ccc([N+](=O)[O-])c(OC)c2)CC1	i	-1.4
Cc1csc(SCC(=O)Nc2cc(S(=O)(=O)N3CCOCC3)ccc2N2CCOCC2)n1	i	1.1
CCn1cc(/C=N/NC(=O)c2cc3c(ccc4ccccc43)o2)c2ccccc21	i	2.1
COc1ccc(-n2c(C)nc3c(cnn3-c3ccccc3)c2=O)cc1	i	-0.42

Compound	KCNQ2 block	KCNQ2 block baseline
CCc1cc2c(=O)n(N)c(CCC(=O)O)nc2s1	i	0.58
COc1ccc(N(CC(=O)N2CCc3ccccc3C2)S(=O)(=O)c2ccccc2)cc1	i	0.13
CCC(=O)N1c2ccc(S(=O)(=O)N3CCCCC3)cc2CC1C (stereo not drawn)	i	-0.22
COc1ccc(N/N=C(/C(N)=O)C2=NC(C)(C)Cc3ccccc32)cc1	i	-2.6
Cc1c(C(=O)NC(C)C2CC3CCC2C3)cccc1[N+](=O)[O-] (stereo not drawn)	i	2
O=C(NCc1cccs1)c1cccc(S(=O)(=O)N2CCCCC2)c1	i	-0.18
CN(C)C(=O)/C(=C/c1cn(-c2ccccc2)nc1-c1cccc([N+](=O)[O-])c1)NC(=O)c1ccccc1	i	-0.52
CCN(CC)C(=O)/C(=C\c1ccc(Br)cc1)NC(=O)c1ccccc1OC	-7.2*	1.6*
Cc1c(NC(=O)c2cccc(NS(C)(=O)=O)c2)c(=O)n(-c2ccccc2)n1C	i	1.5
NC(=O)c1cc(-c2ccncc2)nc2ccc(Cl)cc12	i	-0.38
COc1ccc(OC)c(NC(=O)Nc2nnc(N3CCC(C)CC3)s2)c1	i	-0.12
Cn1c(SCC(=O)c2ccccc2F)nnc1C1CC1	i	1.8
Cc1ccc2nc3ccc(N4CCCCCCC4)nn3c(=O)c2c1	i	0.49
CC(C)c1ccc(/C=N\NC(=O)c2ccc(Cn3cccn3)o2)cc1	i	-0.05
O=C(N/N=C/c1ccc2c(c1)OCO2)C(O)c1ccccc1 (stereo not drawn)	i	0.69
COc1cc(C=O)c(-c2c(C=O)cc(OC)c3c2OCO3)c2c1OCO2	i	2.3
CC(=O)N1CCc2cc(S(=O)(=O)CCC(=O)Nc3c(C)n(C)n(-c4ccccc4)c3=O)ccc21	i	1.2
COCCN(C(=S)Nc1ccc(C)c(C)c1)C(C)c1ccco1 (stereo not drawn)	i	0.63
CCOc1ccc(OCCCC(=O)NNC(=O)c2ccncc2)cc1	i	0.79
CCOc1ccccc1NC(=O)CSc1cn[nH]n1	i	6.1
CN1CCCC(OC(=O)CCCC(=O)OC2CCCN(C)C2)C1 (stereo not drawn)	i	-1.4
O=C(O)CC1c2ccccc2CCN1S(=O)(=O)c1ccc(F)cc1 (stereo not drawn)	i	-0.53
Cc1cccc(OCC(=O)N2CCN(C(=O)c3ccco3)CC2)c1	i	-2.1
C#Cc1ccc([C@@H]2C=C(C(=O)OCC=C)O[C@H](OCC)[C@H]2CCCO)cc1	i	-2.2
COc1ccc(S(=O)(=O)N2CCOCC2)cc1NC(=O)Cc1ccccc1Cl	i	-0.9

Compound	KCNQ2 block	KCNQ2 block baseline
CC(C)(C)c1nnc(NC(=O)c2cc(-c3ccccc3)nc3ccccc23)s1	i	-0.01
COc1ccccc1S(=O)(=O)Cc1ccc(C(=O)NCc2cccs2)o1	i	1.6
COc1ccc(Cl)cc1NC(=O)CN1CCC(n2nnc3cc(C)ccc32)CC1	i	-0.08
Cc1cc(C)cc(NC(=O)Cn2nnc(C(=O)NCc3ccc(F)cc3)c2N)c1	i	0.05
CCN(CC)c1nc2c(c(=O)[nH]c(=O)n2C)n1CCCc1ccccc1	i	0.48
COc1cc(OC)c(NC(=O)C(=O)CC(=O)c2ccc(C)cc2C)cc1Cl	i	-0.16
CCn1cc(C(=O)O)c(=O)c2cnc(N3CCN(C(=S)NC(=O)c4ccc(F)c(F)c4)CC3)nc21	i	0.02
CC(C)C(C(=O)Nc1ccc2c(c1)OCO2)N1C(=O)c2ccccc2C1=O (stereo not drawn)	i	-1.3
CCC(C(=O)Nc1cc(C(=O)O)ccc1C)c1ccccc1 (stereo not drawn)	i	-0.45
O=C(COc1ccc(Cl)cc1)Nc1ccccc1C(=O)NCc1ccco1	i	0.56
CCCOc1ccc(C2c3c(oc4cc(C)c(C)cc4c3=O)C(=O)N2CCCN(C)C)cc1OCC (stereo not drawn)	i	0.75
Cc1sc2c3ccsc3ccc2[n+]1C	i	0.04
CCOC(=O)C1CCN(C(=O)CCCn2nc(CC)n3c(cc4occc43)c2=O)CC1	i	-0.45
CC(C)c1ccc(C(=O)Nc2nnc(S(=O)(=O)N3CCOCC3)s2)cc1	i	0.54
COc1ccc(C2CC(c3ccccc3)=NN2C(=O)COC(=O)c2cccnc2Cl)cc1 (stereo not drawn)	i	0.46
O=C(Nc1ccccc1C(=O)NC(Cc1c[nH]c2ccccc12)C(=O)O)c1ccco1 (stereo not drawn)	i	0.69
Cc1ccc(OCCOc2cccc(Br)c2)c([N+](=O)[O-])n1	i	1.1
O=C1c2cccc3cc([N+](=O)[O-])cc(c23)C(=O)N1CCN1CCCC1	i	-0.78
O=C(Nc1ncccc1O)c1cccc(S(=O)(=O)N2CCCc3ccccc32)c1	i	0.41
Cc1ccc(CNC(=O)Cc2ccc(-c3ccccc3)cc2)cc1	i	0.07
O=[N+]([O-])c1cccnc1SCc1c(F)cccc1Cl	i	0.79
O=C(O)CCC(=O)N1CCc2cc(S(=O)(=O)NCc3ccc(Cl)cc3)ccc21	i	-1.9
CCOC(=O)N1CCC(NS(=O)(=O)c2ccccc2)CC1	i	-1.6
CCn1c(NCc2ccc3c(c2)OCO3)nc2ccccc21	i	-0.18
O=C(N/N=C/C=C/c1ccccc1)c1cnccn1	i	0.23

Compound	KCNQ2 block	KCNQ2 block baseline
Cc1ccc(CSc2nnc(-c3cccc(S(=O)(=O)N4CCOCC4)c3)n2C2CCCC2)cc1	i	-1.7
Cc1cccc(-[n+]2c(-c3cccc(Br)c3)[nH]c3nc4ccccc4nc32)c1	-6.9*	0.14*
CC(C)(C)c1ccc(C(=O)NCCC(=O)NCc2ccco2)cc1	i	0.01
NC1=NC(=O)C(Cc2cccc(Cl)c2)S1 (stereo not drawn)	i	4
CSCC[C@H](NC(=O)NCc1ccc(F)cc1)C(=O)O	i	0.34
Cc1ccc(S(=O)(=O)N2CCN(c3nc(C(C)C)c4c(c3C#N)CC(C)(C)OC4)CC2)cc1	i	-1.1
O=C(NCc1ccc(F)cc1)c1c2c(nc3ccccc13)CCC2	i	1.8
CC(=O)Nc1ccc(N/C(C)=C/C(=O)c2cccnc2)cc1	i	0.43
Cc1ccc(S(=O)(=O)N2CCN(C(=O)C3CCCCC3)CC2)cc1	i	0.74
COc1ccc(NC(=O)CSCC(=O)N(C)Cc2cccc(OC)c2OC)cc1	i	0.64
COC(=O)CSc1nnc(CNC(=O)c2ccccc2F)n1-c1ccc(F)cc1	i	0.83
CC(=O)N1CCc2[nH]c3ccc(C)cc3c2C1	i	-1.3
Cc1nnc(C)c2c(C)n(C(C)c3ccccc3)c(C)c12 (stereo not drawn)	i	0.13
COCCN(C(=O)COC(=O)c1ccc(C)o1)c1c(N)n(Cc2ccccc2)c(=O)[nH]c1=O	i	0.21
CCOc1ccc(C(=O)NCC(=O)OCC(=O)Nc2ccc(C)c(S(=O)(=O)N(C)C)c2)cc1	i	-0.17
Cc1cccc(C(=O)NNC(=O)c2ccco2)c1O	i	2.1
N#Cc1nc(N)nc(N(c2ccccc2)c2ccccc2)n1	i	-0.26

A portion of the library; the hit share may differ from the screen's.
